Bioassay records deposited in PubChem BioAssay by Broad Institute.
AF4-AF9 inh: MLL-AF4/AF9 protein interaction inhibition; P42568; AlphaScreen, biotin-AF4 peptide binding to FLAG-AF9; inhibition, % at 10 µM; hit rate 0.47% among 350,000; AID 651704;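 active = every replicate reaching a set inhibition limit, whatever the replicate mean, cut at about 25% in these data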;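 note: 0% = plate neutral control median and 100% = total signal loss; the record names both 10 and 1 µM as test concentration; the first replicate is given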
Target sequence (P42568 whole entry, looked up): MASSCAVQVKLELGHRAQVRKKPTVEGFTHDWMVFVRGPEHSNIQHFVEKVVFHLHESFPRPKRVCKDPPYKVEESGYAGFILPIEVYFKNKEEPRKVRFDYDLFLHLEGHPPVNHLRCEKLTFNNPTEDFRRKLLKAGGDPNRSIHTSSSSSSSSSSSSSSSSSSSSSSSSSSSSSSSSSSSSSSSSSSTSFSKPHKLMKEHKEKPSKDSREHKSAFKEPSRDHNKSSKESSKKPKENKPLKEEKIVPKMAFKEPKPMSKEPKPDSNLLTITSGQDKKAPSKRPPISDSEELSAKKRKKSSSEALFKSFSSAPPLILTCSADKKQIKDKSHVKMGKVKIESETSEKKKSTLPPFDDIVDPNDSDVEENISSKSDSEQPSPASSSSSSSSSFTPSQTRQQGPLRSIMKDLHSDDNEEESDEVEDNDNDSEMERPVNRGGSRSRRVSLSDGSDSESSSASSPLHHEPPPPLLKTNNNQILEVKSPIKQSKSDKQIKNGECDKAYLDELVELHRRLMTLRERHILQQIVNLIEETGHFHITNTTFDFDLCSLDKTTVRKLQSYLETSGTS
FGF22 binding: shifts melting point of recombinant human FGF22 | calls only at 9.99 µM | recombinant FGF22 thermal shift, SYPRO orange fluorescence; percent of sucrose octasulfate shift, DMSO zero | AID 651658 | hit rate 1.5% among 340,000 | Q9HCT0;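 active = melting point raised past a set limit in the mean and every replicate; three in four hits are not shown here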
Target sequence (Q9HCT0 whole entry, looked up): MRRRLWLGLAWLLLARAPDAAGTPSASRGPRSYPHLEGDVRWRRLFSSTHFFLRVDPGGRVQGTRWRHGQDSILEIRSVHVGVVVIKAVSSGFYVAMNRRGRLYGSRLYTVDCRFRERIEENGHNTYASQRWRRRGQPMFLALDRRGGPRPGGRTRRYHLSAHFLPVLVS
Ecoli rRNA inh: inhibitors of bacterial rRNA selective over humanized ribosomes | E. coli WT GFP vs humanized-ribosome RFP mutants, fluorescence, 24 h; stronger effect = lower value; DMSO median 0, no signal -100 | GFP signal change (wild-type ribosome), % (no concentration beside the values) | AID 720706 | hit rate 1.6% among 350,000;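 active = significant combined selectivity score with lowered wild-type GFP, culture density cut under 30%, mutant RFP and density less affected; inactive = any of these conditions unmet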; note: one replicate is shown; some compounds called inactive have numbers as strong as hits
Ecoli rRNA inh OD600: recorded beside Ecoli rRNA inh, whose call it bears; OD600 change, %; measured here: OD600 growth;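 optical density of the mix in the first replicate; 0 = DMSO median and -100 = no signal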
Ecoli rRNA inh RFP: second read-out of Ecoli rRNA inh, no call of its own (marks repeat the call); RFP signal change, %; measured here: RFP humanized mutant strains;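 first replicate; 0 = DMSO median and -100 = no signal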
* = called active by the depositor; i = inactive; x = not tested or not shown; + = active, no number; & = joins results of further samples.

entry	mol	AF4-AF9 inh	FGF22 binding	Ecoli rRNA inh	Ecoli rRNA inh OD600	Ecoli rRNA inh RFP
1	CC1(C(=O)NS(=O)(=O)c2ccc(Br)cc2)CCN1C(=O)Cc1ccsc1 (stereo not given)	-3.0	i	5	12	-1.0
2	CC(C)NC(=O)N(C)C[C@H]1OCCCC[C@H](C)Oc2ccc(NC(=O)Nc3ccc(C(F)(F)F)cc3)cc2C(=O)N([C@H](C)CO)C[C@H]1C	-1.6	i	4	9	0.1
3	O=C(NCc1ccccc1)c1ccc([N+](=O)[O-])cc1	-2.8	i	-6	4	-2.7
4	C[C@@H]1CN([C@@H](C)CO)C(=O)c2cc(-c3ccc(C#N)cc3)cnc2O[C@H]1CN(C)C(=O)Nc1ccccc1	-0.1	i	-4	-4	-2.6
5	COc1ccccc1NC(=O)N[C@H]1C=C[C@@H](CC(=O)N[C@H](C)c2ccccc2)O[C@H]1CO	-1.3	i	-2	1	-0.8
6	C[C@H](CO)N1C[C@H](C)[C@H](CN(C)C(=O)Nc2ccc3c(c2)OCO3)Oc2ccc(NC(=O)Cc3cn(C)c4ccccc34)cc2CC1=O	5.8	i	1	-1	-0.5
7	COC(=O)[C@]1(C)N[C@H](CN(C)C(C)=O)[C@@H]2C(=O)N(C)C(=O)[C@@H]21	2.3	x	17	8	7.1
8	C[C@@H]1CCCCO[C@@H](CN(C)S(=O)(=O)c2ccc(Cl)cc2)[C@H](C)CN([C@@H](C)CO)C(=O)c2cc(NS(=O)(=O)c3cccs3)ccc2O1	1.3	i	-2	0	-1.1
9	C[C@@H]1CN([C@@H](C)CO)C(=O)Cc2cc(NC(=O)Cn3cnnn3)ccc2O[C@H]1CN(C)Cc1ccc2c(c1)OCO2	6.3	i	0	3	-1.6
10	COCC(=O)N1C[C@H](C)[C@@H](OC)CN(C)C(=O)c2cc(NC(=O)Nc3cccc(F)c3)ccc2OC[C@@H]1C	-2.2	i	-2	-2	1.0
11	Cc1ccc(-c2cnc3c(c2)C(=O)N([C@H](C)CO)C[C@@H](C)[C@H](CN(C)CC2CCCC2)O3)cc1	2.7	i	5	10	-1.4
12	O=S(=O)(c1ccccc1)N1C[C@H]2[C@@H](c3ccccc31)[C@@H](CO)N2Cc1ccc2c(c1)OCO2	1.1	i	-17	-34	2.6
13	O=C(Nc1ccc(C(F)(F)F)cc1)N1[C@@H]2CNC[C@H]1C2c1ccc(-c2ccccc2F)cc1 (stereo not given in full)	-1.2	i	-57&-58	-79&-78	-17&-14
14	CO[C@@H]1CN(C)C(=O)c2ccc(NC(=O)c3ccno3)cc2OC[C@H](C)N(S(C)(=O)=O)C[C@H]1C	-5.8	i	1	8	-1.4
15	O=C(NCC[C@@H]1CC[C@@H](NS(=O)(=O)c2cccc(F)c2)[C@H](CO)O1)C1CCCCC1	-1.0	i	-2	-9	1.3
16	O=C(N[C@H]1CC[C@H](CC(=O)N2CCOCC2)O[C@@H]1CO)c1ccc2c(c1)OCO2	0.0	i	2	6	-1.4
17	Cc1ccc(S(=O)(=O)N(C)C[C@H]2Oc3ccc(NC(=O)Cn4cnnn4)cc3C(=O)N([C@@H](C)CO)C[C@@H]2C)cc1	-0.5	i	-2	-3	-0.1
18	C[C@@H]1CN([C@H](C)CO)C(=O)CCCn2cc(nn2)CO[C@H]1CN(C)C(=O)Nc1ccc(N2CCN(C)CC2)cc1	1.4	i	-1	5	-1.9
19	C[C@H]1CN([C@@H](C)CO)C(=O)c2cc(NS(=O)(=O)c3cccs3)ccc2O[C@@H]1CN(C)S(=O)(=O)c1ccc(F)cc1	0.3	i	1	2	1.2
20	CCCNC(=O)N1[C@H](CO)[C@@H](c2ccccc2C2=CCCC2)[C@@H]1C#N	-9.5	i	12	-17	14
21	O=C(C[C@H]1C[C@@H]2c3cc(NC(=O)Nc4ccccc4)ccc3O[C@@H]2[C@H](CO)O1)NC1CCCC1	0.7	i	-4	-9	1.6
22	CO[C@@H]1CN(C)C(=O)c2cc(NC(=O)c3cnccn3)ccc2OC[C@@H](C)N(C(C)=O)C[C@H]1C	0.7	i	1	-4	-2.6
23	O=C(O)C[C@H]1C[C@H]2c3cc(NC(=O)C4CCC4)ccc3O[C@H]2[C@H](CO)O1	-0.2	i	4	11	-3.0
24	Cc1ccc2c(=O)n3c(nc2c1)C(Cc1ccccc1)NC(=O)c1cc2ccccc2cc1-3 (stereo not given)	1.7	i	0	26	23
25	C[C@H]1CN([C@@H](C)CO)C(=O)c2cc(Br)cnc2O[C@@H]1CN(C)Cc1ccccc1	-2.3	i	5	10	0.6
26	CN(C)Cc1cn(CC[C@H]2CC[C@@H](NS(=O)(=O)c3ccc(-c4ccccc4)cc3)[C@@H](CO)O2)nn1	8.4	i	-4	-1	0.8
27	O=C(O)[C@H]1[C@H](CO)[C@H]2Cn3c(ccc(-c4ccccc4F)c3=O)[C@H]2N1C(=O)c1cnccn1	-1.2	i	4	1	-1.6
28	COc1ccc(S(=O)(=O)N2CCCOC2CNC(=O)C(=O)NCc2ccccc2C)cc1 (stereo not given)	0.2	i	3	-3	-4.1
29	CCCC(=O)Nc1ccc2c(c1)C(=O)N(C)C[C@H](OC)[C@H](C)CN(C(=O)c1cnccn1)[C@H](C)CO2	2.9	i	2	5	-1.9
30	CO[C@H]1CN(C)C(=O)c2ccc(NC(C)=O)cc2OC[C@H](C)N(CCC(F)(F)F)C[C@H]1C	1.4	i	-4	-1	-2.4
31	CO[C@@H]1CC[C@@H]2CCOc3c(C#N)cccc3C(=O)N(C)C[C@H](c3ccccc3)CC(=O)N(C)C[C@@H]1O2	-1.6	i	3	7	3.3
32	O=C(NCC[C@@H]1CC[C@@H](NC(=O)c2ccccc2F)[C@H](CO)O1)c1cnccn1	1.9	i	3	1	-0.9
33	CN1C(=O)c2cc(NC(=O)c3ccc(F)cc3)ccc2OC[C@H]2O[C@H](CC(=O)O)CC[C@H]21	-1.6	i	3	0	-1.3
34	CNC[C@H]1Oc2ccc(NC(=O)C3CCCCC3)cc2C(=O)N([C@@H](C)CO)C[C@H]1C	-6.2	+	7	5	-3.4
35	CN(C)C(=O)C[C@H]1C[C@@H]2c3cc(NC(=O)Nc4ccc(C(F)(F)F)cc4)ccc3O[C@@H]2[C@H](CO)O1	2.0	i	-5	-17	-2.7
36	CC(=O)Nc1ccc(C(=O)COC(=O)C2CC2)c(F)c1	-2.9	i	1	3	-3.0
37	O=C(NCC[C@@H]1CC[C@H](NS(=O)(=O)c2ccc(Cl)cc2)[C@@H](CO)O1)c1ccc2c(c1)OCO2	0.5	i	-4	-3	-1.5
38	Cc1ccc(S(=O)(=O)Nc2cccc3c2O[C@H](CN(C)Cc2ccc(-c4ccccc4)cc2)[C@H](C)CN([C@H](C)CO)C3=O)cc1	0.2	i	1	-1	1.9
39	Cc1cc(N)cc(C)c1-c1c(Br)cc(N)cc1Br	-4.3	i	-47	-68	-9.6
40	C[C@@H]1CN([C@H](C)CO)S(=O)(=O)c2ccc(C3=CCCCC3)cc2O[C@@H]1CN(C)C(=O)C1CCC1	1.0	i	-28	-52	27

Ordered by formula weight (high to low): part of the list above.
entry	mol	AF4-AF9 inh	FGF22 binding	Ecoli rRNA inh	Ecoli rRNA inh OD600	Ecoli rRNA inh RFP
8	C[C@@H]1CCCCO[C@@H](CN(C)S(=O)(=O)c2ccc(Cl)cc2)[C@H](C)CN([C@@H](C)CO)C(=O)c2cc(NS(=O)(=O)c3cccs3)ccc2O1	1.3	i	-2	0	-1.1
11	Cc1ccc(-c2cnc3c(c2)C(=O)N([C@H](C)CO)C[C@@H](C)[C@H](CN(C)CC2CCCC2)O3)cc1	2.7	i	5	10	-1.4
27	O=C(O)[C@H]1[C@H](CO)[C@H]2Cn3c(ccc(-c4ccccc4F)c3=O)[C@H]2N1C(=O)c1cnccn1	-1.2	i	4	1	-1.6

3 of the entries above in order of their number in Ecoli rRNA inh, low to high:
entry	mol	AF4-AF9 inh	FGF22 binding	Ecoli rRNA inh	Ecoli rRNA inh OD600	Ecoli rRNA inh RFP
17	Cc1ccc(S(=O)(=O)N(C)C[C@H]2Oc3ccc(NC(=O)Cn4cnnn4)cc3C(=O)N([C@@H](C)CO)C[C@@H]2C)cc1	-0.5	i	-2	-3	-0.1
23	O=C(O)C[C@H]1C[C@H]2c3cc(NC(=O)C4CCC4)ccc3O[C@H]2[C@H](CO)O1	-0.2	i	4	11	-3.0
1	CC1(C(=O)NS(=O)(=O)c2ccc(Br)cc2)CCN1C(=O)Cc1ccsc1 (stereo not given)	-3.0	i	5	12	-1.0

Next records.
entry	mol	AF4-AF9 inh	FGF22 binding	Ecoli rRNA inh	Ecoli rRNA inh OD600	Ecoli rRNA inh RFP
41	CC(O)(c1cccc(F)c1)c1nc(-c2ccc(S(C)(=O)=O)cc2)cs1 (stereo not given)	-6.3	i	-10	-6	0.0
42	C[C@H](CO)N1C[C@H](C)[C@@H](CN(C)C(=O)Nc2ccc3c(c2)OCO3)Oc2ccc(NC(=O)Nc3ccccc3)cc2CC1=O	6.2	i	-1	1	-5.3
43	C[C@@H]1CN([C@@H](C)CO)C(=O)c2cc(NC(=O)Nc3ccccc3)ccc2O[C@@H](C)CCCCO[C@@H]1CN(C)S(=O)(=O)c1ccc(Cl)cc1	1.0	i	4	8	0.9
44	C[C@@H]1CN([C@H](C)CO)C(=O)c2cc(NC(=O)Cc3ccccc3)ccc2O[C@H]1CN(C)Cc1ccc(C(=O)O)cc1	-1.7	i	1	0	0.7
45	C[C@H]1CN([C@@H](C)CO)C(=O)c2cc(NC(=O)Nc3ccc4c(c3)OCO4)ccc2O[C@@H]1CN(C)Cc1ccc2c(c1)OCO2	15	i	3	-14	4.5
46	CNC(=O)C[C@H]1CC[C@H]2[C@H](COc3ccc(NC(=O)c4ccccc4OC)cc3C(=O)N2C)O1	0.6	i	-1	-1	-2.1
47	Cc1noc(C)c1S(=O)(=O)Nc1ccc2c(c1)C(=O)N([C@@H](C)CO)C[C@H](C)[C@@H](CN(C)C(=O)Nc1cccc3ccccc13)OCCCC[C@H](C)O2	-3.1	i	-1	1	4.2
48	Cc1ccccc1-c1cnc2c(c1)C(=O)N([C@@H](C)CO)C[C@H](C)[C@@H](CN(C)C(=O)c1ccc(F)cc1)O2	-1.4	i	-6	-10	4.5
49	C[C@@H]1CCCCO[C@H](CN(C)C(=O)NC2CCCCC2)[C@H](C)CN([C@@H](C)CO)C(=O)c2cc(NC(=O)Cc3ccccc3)ccc2O1	2.7	i	-4	0	8.2
50	Cc1ccc(S(=O)(=O)N[C@@H]2CC[C@H](CC(=O)NCCc3ccncc3)O[C@H]2CO)cc1	0.7	i	2	4	-2.1
51	C[C@H](CO)N1C[C@H](C)[C@H](CN(C)C(=O)NC2CCCC2)Oc2cc(-c3cncnc3)ccc2S1(=O)=O	-0.3	i	5	8	2.1
52	O=C(N[C@H]1C=C[C@@H](CC(=O)N2CCc3ccccc3C2)O[C@@H]1CO)C1CC1	-0.7	i	2	-7	-1.8
53	CC(=O)N1CC2(C1)[C@H](c1ccc(-c3ccccc3C)cc1)[C@H](CO)N2C(C)=O	1.0	i	1	-5	0.4
54	COc1ccc(-c2csc(C(O)c3ccc(F)c(OC)c3)n2)cn1 (stereo not given)	2.7	i	1	-9	6.6
55	CCNC(=O)C[C@H]1CC[C@H]2[C@@H](COc3ccc(NC(=O)c4ccc(F)c(F)c4)cc3C(=O)N2C)O1	0.1	i	0	-3	-2.6
56	C[C@@H]1CN([C@H](C)CO)C(=O)c2cc(C#CCN(C)C)cnc2O[C@H]1CN(C)C(=O)Cc1ccccc1	-0.5	i	6	9	-1.5
57	O=C(NCC(=O)N1CCN(S(=O)(=O)c2c(F)cccc2F)CC1)c1ccccc1F	10	i	5	4	-1.2
58	C[C@H]1CCCCO[C@@H](CN(C)Cc2ccc3c(c2)OCO3)[C@@H](C)CN([C@@H](C)CO)C(=O)c2cc(NC(=O)C3CCCCC3)ccc2O1	5.5	i	-4	-13	0.4
59	Cc1noc(C)c1S(=O)(=O)N(C)C[C@@H]1Oc2ccc(NC(=O)C3CCCCC3)cc2CC(=O)N([C@H](C)CO)C[C@H]1C	-1.4	i	4	-1	1.0
60	COc1ccc2c3c(n(C)c2c1)[C@@H](CO)N(C)CC31CCN(C(=O)c2ccc3c(c2)OCO3)CC1	4.2	i	-2	-13	-2.0
61	CCOC(=O)C1(C)CCCN(C(=O)c2cccc3ccccc23)C1 (stereo not given)	2.8	i	-1	7	2.0
62	COC(=O)[C@@]1(Sc2ccc(C)cc2)CC(=O)N[C@@H]1c1ccc(Br)cc1	-2.4	i	18	20	5.1
63	COc1ccc(-c2ccc3c(c2)[C@@H]2[C@@H](CCN2C(=O)Nc2ccccc2OC)[C@@H](CO)N3C)cc1	-3.8	i	-3	10	-0.5
64	COCCN1C[C@@H](CO)O[C@@H](n2cnc3c(N(C)C)ncnc32)C1	-1.8	i	17	13	0.7
65	COc1ccc(NC(=O)N(C)C[C@@H]2Oc3c(NC(=O)C4CCCCC4)cccc3C(=O)N([C@@H](C)CO)C[C@@H]2C)cc1	0.9	i	2	10	0.7

Some of the compounds tested; the hit share may differ from the screen's.
